GLA inh pH 4.5 – blocks human alpha-galactosidase A at pH 4.5; AID 1467; purified enzyme, 4-MU-alpha-Gal fluorescence, pH 4.5; 230,000 tested, under 10 active; activity change, negative = inhibition, % at 105 µM; inconclusive = small, poorly fitted or top-dose-only inhibition, or a rising curve; inactive = flat fitted curve, though single readings scatter; no compound was filed as active;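 note: 0% = full activity with enzyme and -100% = basal without enzyme; dose as in the result columns while the protocol names 77 µM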
Target sequence (P06280 whole entry, looked up): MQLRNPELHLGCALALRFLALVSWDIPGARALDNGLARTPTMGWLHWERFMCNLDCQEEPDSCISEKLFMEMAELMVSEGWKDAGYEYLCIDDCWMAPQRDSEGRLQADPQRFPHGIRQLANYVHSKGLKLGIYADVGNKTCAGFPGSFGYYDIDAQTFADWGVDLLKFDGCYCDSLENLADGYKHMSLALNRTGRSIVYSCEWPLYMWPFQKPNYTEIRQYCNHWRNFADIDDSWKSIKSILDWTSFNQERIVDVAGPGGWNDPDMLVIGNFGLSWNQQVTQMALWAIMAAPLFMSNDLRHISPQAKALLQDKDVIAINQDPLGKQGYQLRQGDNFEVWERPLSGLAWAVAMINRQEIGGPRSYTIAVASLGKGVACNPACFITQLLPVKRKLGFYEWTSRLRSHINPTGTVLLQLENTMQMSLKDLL
Rango release inh – prevents RanGTP from dissociating the Rango-importin beta complex; Biochemical FRET Rango-importin beta, RanGTP-induced dissociation; O95149+P62826; 340,000 tested, 0.071% active; Potency, µM (doses to about 46.1 µM), for the others: at the top dose activity change, negative = inhibition; AID 540253; active means falling FRET ratio curve, often poorly fitted, with flat reads before Ran was added; inconclusive means other falling curves, or compound fluorescence or quenching; inactive means flat or rising ratio curve;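 note: potency is the fitted concentration of half-maximal effect; % of control where 0% means no effect; nearly all actives have a fitted effect of over 45% in size; -100% = wells without RanGTP and RCC1; the record marks most hits as doubtful in a second field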
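Compounds preincubate 5 min with complex of recombinant Rango and importin beta in PBS with 1 mM DTT. Ran (0.6 uM) loaded with 2 mM GTP plus 0.2 uM RCC1 starts dissociation; FRET is recorded 45 min later.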
Rango-impB inh – Rango-importin beta binding inhibition | AID 540263 | Potency, µM (top dose mostly 92.2 µM), inactives show at the highest dose inhibition of complex formation | 340,000 tested, 0.031% active | Rango CFP/YFP FRET sensor + importin beta, 45 min | Q14974; active = rising FRET ratio curve, often small or poorly fitted; inconclusive = mostly compound fluorescence or quenching in the first reads; inactive = flat curves in all reads;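 note: potency is the fitted concentration of half-maximal effect; 0% = DMSO wells and 100% = buffer wells lacking importin beta; nearly all actives have a fitted effect of over 15% in size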
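FRET biosensor Rango (snurportin 1 IBB between N-terminal EYFP and C-terminal Cerulean), 50 nM in PBS/1 mM DTT/0.02% Tween-20/0.1% BSA, preincubated 5 min RT with compound; 0.125 microM importin beta added, 45 min RT, CFP/YFP FRET ratio read.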
miR-21 FLuc – miR-21 reporter, rising signal | AID 2288 | Potency, µM (doses to about 38.3 µM), for the others: top-dose reporter change, positive = more light | 340,000 tested, under 10 active | HeLa miR-21 FLuc reporter, luciferase, 48 h; active = well fitted rising curve with a large enough effect; inconclusive = small, poorly fitted or top-dose-only effect; inactive = no such curve, though single readings can be large or run the other way;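 note: % of control where 0% means no effect; miR-21 action dims this reporter so a rising signal means less miR-21 action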
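HeLa miR-21-FLuc reporter line, endogenous miR-21; 2000 cells/well in DMEM/10% FBS; compound titration up to ~40uM final, 48 h, 37 degree Celsius; luciferase detection reagent, 15 min lysis, CCD luminescence.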
* hit, by the source's call; ? = inconclusive; . = no result given; [ ] = dose if it differs, or a comment. Not all compounds are listed. The share of hits here may be higher or lower than overall.

The line under a structure holds: GLA inh pH 4.5	Rango-impB inh	miR-21 FLuc	Rango release inh
- O=C(Cc1cccs1)Nc1ccc(C(=O)O)cc1
  -4	2.5%	-3%	-7%
- CCN(CC)S(=O)(=O)c1ccc(N2CCCC2)c(NC(=O)CN2C(=O)NC3(CCCC3)C2=O)c1
  .	0.6%	.	7%
- O=C(NC1(C(F)(F)F)NC(=O)N(C2CCCCC2)C1=O)c1cccs1 (centres undefined)
  -3	0.4%	-1%	6%
- CCC1CCCCN1CCCNC(=O)c1cn(CC)c2ccc(S(=O)(=O)N3CCc4ccccc4C3)cc2c1=O (centres undefined)
  5	-0.4%	-5%	6%
- O=C(COC(=O)Cc1n[nH]c(=O)c2ccccc12)Nc1ccc(Cl)cn1
  .	?	.	-4%
- O=C(c1ccc(Cl)c([N+](=O)[O-])c1)N1CCN(C(=O)c2ccco2)CC1
  5[21.1 µM]	2.0%	1%	4%
- FC(F)(F)c1cnc(COc2ccc(Cl)cc2Cl)c(Cl)c1
  -4	-0.8%	-13%	-9%
- O=C(O)COc1ccc(Br)cc1/C=N/O
  2	-3.4%	-2%	-4%
- CCc1ccc(C2C(C#N)=C(N)OC3=C2C(=O)CCC3)s1 (centres undefined)
  1	-1.2%	2%	-8%
- CCOc1ccc(NC(=O)CCS(=O)(=O)c2cccc3nsnc23)cc1
  0	0.0%	-8%	1%
- CCOc1ccc(-c2nnc3ccc(SCC(=O)Nc4nc5ccccc5s4)nn23)cc1
  -1	-4.4%	-10%	-5%
- O=C(Nc1ccc(O)cc1)c1ccc(NC(=O)c2cccs2)cc1
  .	-0.3%	-43%	0%
- Cc1c(N=Cc2c(O)n(C3CCCCC3)c(=O)[nH]c2=O)c(=O)n(-c2ccccc2)n1C
  2	-7.8%	0%	-13%
- COC(=O)COc1cccc2c(=O)n(CC(=O)Nc3ccc4c(c3)OCCO4)ccc12
  -6	-2.4%	-1%	-8%
- Cc1ccnc(NC(=O)Cc2ccc(F)cc2)n1
  4	2.7%	1%	8%
- CC(C)C[C@@H](CNCC(=O)[C@H](C)NC(=O)c1[nH]cnc1C(=O)N[C@@H](C)CN)NC(=O)c1nc[nH]c1C(=O)N[C@@H](Cc1ccccc1)C(=O)O
  .	3.6%	.	13%
- COc1ccc(C2/C=C\CN(S(=O)(=O)c3cccc4cccnc34)CC(=O)N2Cc2ccc(F)cc2)cc1 (centres undefined)
  4	-6.7%	4%	-9%
- CC(O)[C@H]1CNCCN1CCc1cccc2ccccc12 (some centres undefined)
  .	?	.	-29%
- O=C(OCc1nc2scc(-c3ccccc3)c2c(=O)[nH]1)c1cccc([N+](=O)[O-])c1
  -9	-0.5%	-10%	2%
- COc1cc(C2C(C(C)=O)=C(O)C(=O)N2CCc2ccc(OC)c(OC)c2)ccc1O (centres undefined)
  2	5.5%	-2%	-10%
- O=C(CC(Cc1ccccc1)c1ccco1)NC1CCCCC1 (centres undefined)
  3	0.8%	-9%	-5%
- COc1ccc(/C=C(\C#N)C(=O)OCC(=O)NC(=O)NCCC(C)C)cc1
  2	?	-3%	-12%
- CC(=O)N1c2ccc(S(=O)(=O)N3CCC(C(=O)Nc4cc(C)ccn4)CC3)cc2CC1C (centres undefined)
  .	-1.0%	-2%	7%
- Cc1ccc(SCC(=O)NCC2COc3ccccc3O2)cc1 (centres undefined)
  .	-0.1%	.	-3%
- COC(=O)c1cc(NC(=O)c2c(-c3ccccc3)noc2C)ccc1N1CCOCC1
  .	-0.1%	-2%	0%
- O=C(N/N=C/C=C/c1ccco1)c1ccccc1Cl
  -1	?	-2%	-19%
- CCN1C(=O)[C@H]2[C@@H](c3ccc(C)cc3)N3C(=O)N(c4ccc(C)cc4)C(=O)[C@@]3(C)[C@H]2C1=O
  .	4.9%	-17%	-1%
- CCn1c(SCC(=O)N/N=C/c2c[nH]c3ccccc23)nnc1-c1ccc(C(C)(C)C)cc1
  -9	1.8%	23%	-10%
- Nc1nc(SCc2ccccn2)c2ncn(C3OC(CO)C(O)C3O)c2n1 (centres undefined)
  .	?	.	5%
- CC(C)CC1Nc2ncnc(N3CCCCC3)c2N(Cc2ccccc2)C1=O (centres undefined)
  .	-6.1%	.	2%

The listing continues:
The line under a structure holds: GLA inh pH 4.5	Rango-impB inh	miR-21 FLuc	Rango release inh
- CCOc1ccc(NC(=O)c2ccccc2SC)cc1
  0	-1.6%	-79%	0%
- CC1CCCN(C(=O)C2CCN(CCCc3ccccc3)CC2)C1 (centres undefined)
  7	-2.2%	0%	12%
- Cc1cc(C(=O)NNC(=O)Cc2ccc(Cl)cc2)c(C)o1
  .	-0.9%	.	7%
- Fc1ccc(COc2ccccc2CNc2nn[nH]n2)cc1
  -6	-2.3%	-6%	-3%
- COc1ccc2cc3cc(C(=O)NCCN4CCN(Cc5ccccc5)CC4)oc3nc2c1
  28	-2.7%	-10%	0%
- COc1ccc(C(CNC(=O)COc2ccc(F)cc2Br)N2CCCC2)cc1 (centres undefined)
  -12	?	-9%	4%
- CCS(=O)(=O)N1CCC(C(=O)NCc2ccc(F)cc2)CC1
  9	-4.2%	0%	7%
- O=[N+]([O-])c1ccc(/C=N/n2cn[nH]c2=S)cc1
  6	5.2%	-2%	-16%
- O=C(O)COc1ccc(C(=O)c2ccccc2)cc1
  4	-2.7%	2%	-9%
- Fc1ccc(C(CCNCc2ccccn2)c2ccc(Cl)cc2)cc1 (centres undefined)
  .	?	14%	-15%
- COc1cccc(-c2noc(CCC(=O)NC3CCCC3)n2)c1
  .	-0.3%	-22%	36%
- Cc1cc(C)n(CC(=O)NCCC2=CCCCC2)n1
  .	-2.2%	-5%	-2%
- CCCS(=O)(=O)N1CCCC(C(=O)N2CCCCC2)C1 (centres undefined)
  .	-3.6%	-1%	0%
- CCc1cccc(CC)c1NC(=O)CSc1nnc(C(C)C)n1CC
  11	-1.8%	1%	-12%
- Nc1nc(NCc2ccco2)nc(NCCO)c1[N+](=O)[O-]
  -2	-1.6%	-2%	30%
- COCCCN(C(C)=O)c1nc(-c2ccc(OC)cc2)cs1
  -7	-1.3%	-8%	1%
- Cc1cccc([C@@H]2[C@@H]3C(=O)N(Cc4ccccc4)C(=O)[C@@H]3[C@]3(C)C(=O)N(c4cccc(Cl)c4)C(=O)N23)c1
  .	-0.6%	4%	3%
- Cc1cccc(C(=O)OCC(=O)N2CCCCCC2)c1
  .	-1.7%	.	6%
- COc1cc(CCCN2CCNC[C@@H]2CC2CCCCC2)cc(OC)c1OC
  .	2.3%	.	-5%
- Cc1c(NC(=O)C2CCCN(S(=O)(=O)c3cnc[nH]3)C2)c(=O)n(-c2ccccc2)n1C (centres undefined)
  1	1.7%	-6%	-11%
- COC(=O)C1=C(C)N(CCCC(=O)O)C(=O)NC1c1ccc(OC)cc1 (centres undefined)
  .	-0.8%	.	16%
- CS(=O)(=O)NNC(=O)Cn1nnc(-c2cc(C(F)(F)F)cc(C(F)(F)F)c2)n1
  3	1.3%	-14%	3%
- CCNc1nnc(-c2ccc(C)cc2)o1
  1	-0.5%	-50%	0%
- CCC(C)[C@@H](C(=O)N1CCNCC1)n1cc(CCCCN)nn1 (some centres undefined)
  10	-0.3%	3%	0%
- Cn1c(SCc2cccnc2)nc2cccnc21
  4	0.2%	-37%	1%
- CC1CCC2(CC1)NC(=O)N(CC(=O)Nc1cc(S(=O)(=O)N3CCCC3)ccc1Cl)C2=O (centres undefined)
  .	5.3%	.	-2%
- COc1cccc(/C=C/C(=O)OCC(=O)Nc2ccc(N3CCOCC3)cc2)c1OC
  4	-1.0%	13%	6%
- Clc1ccc(-c2nnc3sc(-c4ccc(Br)o4)nn23)cc1
  3	16%	-12%	12%
- O=[N+]([O-])c1ccc2c(c1)CNc1ccccc1O2
  11	-1.8%	-12%	-13%
- COc1c(OC(C)=O)ccc(/C=N\NC(=O)c2ccc(Br)cc2)c1[N+](=O)[O-]
  1	-2.0%	1%	-6%

(list continues)
The line under a structure holds: GLA inh pH 4.5	Rango-impB inh	miR-21 FLuc	Rango release inh
- CC(C)(O)CCC(C)(C)O
  .	-3.6%	.	-1%
- O=C(c1ccccc1)c1ccc2ccccc2n1
  9	?	-29%	22%
- Cn1c(=O)[nH]c(=O)c2c1nc(N1CCN(CCO)CC1)n2Cc1ccccc1
  .	-0.5%	-14%	-17%
- COc1ccc(NC(=O)C2CCCN2C(=O)NC2CCCCC2)c(OC)c1 (centres undefined)
  .	0.9%	9%	-5%
- CCc1ccc(CNC(=O)C2CCCN(S(=O)(=O)N3CC(C)CC(C)C3)C2)cc1 (centres undefined)
  .	-0.9%	-2%	-15%
- CCOC(=O)Cc1csc(NC(=O)c2ccco2)n1
  1	0.0%	-41%	-9%
- CCOc1ccc(N(C(=O)c2ccccc2Cl)C2=NC(C)(C)CS2)cc1
  -15	-4.3%	-18%	-7%
- C=CCn1cc(C(=O)NCCCOCC)c(=O)c2cc(S(=O)(=O)N(CC)CC)ccc21
  -1	0.2%	-5%	4%
- Cc1c(C)n(Cc2ccccc2)c2ncnc(NCCCN(C)C)c12
  .	-1.8%	-7%	1%
- O=C(COC(=O)COc1ccccc1)NCCc1ccccc1
  .	1.9%	.	0%
- CC(C)(C)N/N=C/c1c(O)n(-c2ccc(Cl)cn2)c(=O)c2ccccc12
  1	?	-5%	?
- COc1ccc(OC)c(C2NC(=O)NC(C)=C2C(=O)OC2CCCCC2)c1 (centres undefined)
  .	?	1%	-21%
- CC(=O)Oc1c(Sc2ccccc2[N+](=O)[O-])c(C)nn1C(C)(C)C
  -10	-0.6%	9%	2%
- Nc1[nH]nc2nc(NCc3ccccc3)c3c(c12)CCN(Cc1ccccc1)C3
  3	-1.0%	-10%	-8%
- CN1CCN(C(=O)c2cc(Cl)cc(Cl)c2NC(=O)c2ccco2)CC1
  5	-1.3%	-1%	-1%
- Cc1cc(C)c2nc(SCc3ccc([N+](=O)[O-])cc3)nc(C)c2c1
  4	-1.2%	-1%	1%
- COc1ccc(CNC(=O)C2CCCN2)cc1OC (centres undefined)
  -18	1.3%	-3%	0%
- COc1cc(NC(=O)CSc2nnc(C)s2)cc(OC)c1
  5	-0.1%	0%	-3%
- Cc1ccc(S(=O)(=O)N2CCCC2)cc1C(=O)NC1CCCCC1
  .	5.2%	-1%	26%
- O=C(c1cccc(C(=O)N2CCC(O)(c3ccccc3)CC2)c1)N1CCC(O)(c2ccccc2)CC1
  .	-2.5%	.	-8%
- COc1ccc(N=C2NC(=O)/C(=C/c3ccc(O)c(OC)c3)S2)cc1
  1	?	-11%	?
- OC(c1ccccc1)(c1ccccc1)C1CCN(C(=S)NCCc2ccccc2)CC1
  0	-2.4%	18%	21%
- O=C(OCC(=O)N1CCCC1=O)c1cc(S(=O)(=O)N2CCOCC2)ccc1Cl
  .	0.4%	.	6%
- O=c1c2nnn(Cc3ccccc3)c2ncn1-c1ccccc1
  -2	-4.5%	-2%	8%
- CSc1ccccc1NC(=O)CN(C)C(C)C(=O)NCc1ccc2c(c1)OCO2 (centres undefined)
  .	0.9%	.	17%
- Cc1ccc(C)c(N(C(=O)c2nsc(Cl)c2Cl)C(C(=O)NC2CCCC2)c2ccc(O)cc2)c1 (centres undefined)
  3	-1.4%	25%	1%
- CC(C)C(NC(=O)c1ccccc1)C(=O)N1CCN(C/C=C/c2ccccc2)CC1 (centres undefined)
  .	-2.2%	.	-1%
- COC(=O)CN(c1ccccc1)S(=O)(=O)c1ccc(F)cc1
  -6	3.8%	3%	-15%
